Screening data deposited in PubChem BioAssay by several laboratories.
HNF4A DNA FP = change in binding of human HNF4 alpha to DNA; HNF4a-FITC DNA binding, fluorescence polarization, 1 h; AID 1224865; activity change, % at 10 µM; 360,000 compounds, 0.3% hits; P41235; in the data active means activity change above about 30%, passing the limit was not always enough;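 further: controls were the assay level and a saturating level of protein; the project sought stronger binding though the title names inhibitors; some compounds called inactive have numbers as strong as hits; positive values seem to mean higher polarization but the record does not say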
MLL AF4-AF9 inh = blocks AF4 peptide binding to human AF9 | P42568 | AlphaScreen, biotin-AF4 peptide binding to FLAG-AF9 | inhibition, % at 10 µM | 350,000 compounds, 0.47% hits | AID 651704;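 active means every replicate reaching a set inhibition limit, whatever the replicate mean, cut at about 25% in these data; inconclusive means mean inhibition reaches that limit but some replicates miss it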;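 further: 0% = plate neutral control median and 100% = total signal loss; the record names both 10 and 1 µM as test concentration; the first replicate is given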
Target sequence (P42568 whole entry, looked up): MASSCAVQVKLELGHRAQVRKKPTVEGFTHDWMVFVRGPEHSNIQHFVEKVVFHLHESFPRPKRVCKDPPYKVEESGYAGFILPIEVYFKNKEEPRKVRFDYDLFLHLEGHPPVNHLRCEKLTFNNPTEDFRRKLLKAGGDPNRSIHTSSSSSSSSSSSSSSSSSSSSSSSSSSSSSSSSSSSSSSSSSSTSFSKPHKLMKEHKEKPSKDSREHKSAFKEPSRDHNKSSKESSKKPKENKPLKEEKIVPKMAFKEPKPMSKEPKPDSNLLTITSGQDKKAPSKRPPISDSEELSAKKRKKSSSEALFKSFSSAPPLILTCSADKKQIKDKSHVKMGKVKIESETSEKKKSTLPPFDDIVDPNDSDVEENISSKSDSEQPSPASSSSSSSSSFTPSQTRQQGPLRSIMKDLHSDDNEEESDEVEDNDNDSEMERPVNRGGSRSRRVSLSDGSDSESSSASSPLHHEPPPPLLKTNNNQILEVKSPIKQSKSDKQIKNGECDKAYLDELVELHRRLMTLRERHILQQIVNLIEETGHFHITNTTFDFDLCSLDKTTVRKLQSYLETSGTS
Vif A3G = inhibitors of Vif binding to APOBEC3G peptide, primary screen, biochemical, TR-FRET, GST-Vif 1-94, biotin-A3G peptide, dose response retest (AID 1117319); TR-FRET GST-Vif / biotin-A3G peptide binding; higher % means a stronger effect; test concentration not given here; strong numbers were not always called active; inhibition, %, or IC50 in µM where a hit was titrated; 260,000 compounds, 0.57% hits;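 active means above the screen mean plus three standard deviations and confirmed in dose response; inconclusive means results disagree or hit not tested in dose response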;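 further: Vif residues 1-94 fused to GST binding biotinylated APOBEC3G peptide 110-148; 0% = full assay without inhibitor and 100% = GST in place of GST-Vif; retest series ran down from 100 µM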
Ecoli growth = blocks Escherichia coli growth; OD600, 23 h; active compounds read low; OD600 absorbance (concentration not given with the values); 330,000 compounds, 0.21% hits;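 active means OD600 absorbance below the run mean of sample wells minus 3.6 SD, in any replicate, cut at about 0.56 in these data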;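 further: stock transfer was 300 nL into about 60 µL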
Ecoli rRNA inh = inhibitors of bacterial rRNA selective over humanized ribosomes; E. coli WT GFP vs humanized-ribosome RFP mutants, fluorescence, 24 h; active compounds read low; DMSO median 0, no signal -100; GFP signal change (wild-type ribosome), % (test concentration not listed); 350,000 compounds, 1.6% hits;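 active means significant combined selectivity score with lowered wild-type GFP, culture density cut under 30%, mutant RFP and density less affected; inactive means any of these conditions unmet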; further: one replicate is shown; some compounds called inactive have numbers as strong as hits
ALR H2O2 inh = blocks human ALR sulfhydryl oxidase activity; P55789; purified ALR, DTT oxidation, H2O2 HRP-luminol luminescence; inhibition, % (test concentration not listed); 290,000 compounds, 3.8% hits;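 active means mean and each replicate at 75% or more; inconclusive means only one of the two met; inactive means neither met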;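 further: stock transfer was 7.5 nL into about 7.5 µL; 0% = neutral wells and 100% = wells with inactivated enzyme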
Target sequence (P55789 whole entry, looked up): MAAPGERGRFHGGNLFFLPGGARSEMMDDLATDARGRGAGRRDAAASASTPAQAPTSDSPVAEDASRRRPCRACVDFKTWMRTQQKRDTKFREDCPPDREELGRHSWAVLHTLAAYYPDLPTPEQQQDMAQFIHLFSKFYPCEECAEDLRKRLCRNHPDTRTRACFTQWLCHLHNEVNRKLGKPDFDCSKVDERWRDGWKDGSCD
FGF22 binding = FGF22 (human) thermal shift binding. Q9HCT0. recombinant FGF22 thermal shift, SYPRO orange fluorescence; percent of sucrose octasulfate shift, DMSO zero. calls only at 9.99 µM. 340,000 compounds, 1.5% hits;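 active means melting point raised past a set limit in the mean and every replicate; inconclusive means no clear call; three in four hits are not shown here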
Target sequence (Q9HCT0 whole entry, looked up): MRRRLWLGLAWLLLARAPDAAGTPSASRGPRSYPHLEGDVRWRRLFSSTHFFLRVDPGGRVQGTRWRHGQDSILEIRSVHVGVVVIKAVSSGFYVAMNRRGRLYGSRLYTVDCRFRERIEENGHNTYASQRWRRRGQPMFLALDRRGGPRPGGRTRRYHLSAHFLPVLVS
Ecoli rRNA inh OD600 = further read-out of Ecoli rRNA inh, marked with its call; OD600 change, %; measured here: OD600 growth;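 optical density of the mix in the first replicate; 0 = DMSO median and -100 = no signal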
Ecoli rRNA inh RFP = recorded beside Ecoli rRNA inh, whose call it bears; RFP signal change, %; measured here: RFP humanized mutant strains;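 first replicate; 0 = DMSO median and -100 = no signal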
Starred values were filed as active, the others as inactive; i = inactive; u = inconclusive; x = not tested or not shown.

SMILES	HNF4A DNA FP	MLL AF4-AF9 inh	Vif A3G	Ecoli growth	Ecoli rRNA inh	Ecoli rRNA inh OD600	Ecoli rRNA inh RFP	ALR H2O2 inh	FGF22 binding
COc1ccc(S(=O)(=O)N2CCOCC2)cc1NC(=O)CSc1ncccn1	-2.9	-4.3	0%	0.72	6	-13	5.7	-1	i
CN(C)C(=O)C[C@@H]1CC[C@@H](NC(=O)Nc2cccc(F)c2)[C@@H](CO)O1	x	-1.4	x	x	-5	-5	-1.8	x	i
Cc1ccc(OCCC(=O)OCC(=O)NCCc2ccccc2)cc1	5.0	-2.8	8%	0.65	-22*	-15*	5.0*	5	i
Cc1ccc(S(=O)(=O)N(C)C)cc1NC(=O)CN1CCN(Cc2ccccc2)CC1	-6.7	2.6	-8%	0.67	2	-5	0.7	-10	i
O=C(NCCN1CCN(S(=O)(=O)c2ccc([N+](=O)[O-])cc2)CC1)C(=O)Nc1ccccc1	1.3	-0.5	-12%	0.72	17	15	-4.0	-11	i
Cc1cc(C)nc(NC(=O)C(c2ccccc2)c2ccccc2)n1	-0.5	-7.0	0%	0.7	0	-4	-2.4	-19	i
CCN(CC)S(=O)(=O)c1ccc(Cl)c(C(=O)Oc2cccc(-c3cnc4ccccc4n3)c2)c1	4.4	x	26%	0.77	x	x	x	0	x
CC1(c2ccccc2)NC(=O)N(CC(=O)NC(=O)NC2CCCC2)C1=O (centres undefined)	-2.2	x	-2%	0.73	x	x	x	x	x
CN(C)c1ccc(C=c2c3ccccc3n3c2cc(-c2ccccc2)[n+]3C)cc1	74*	43*	x	x	-49	-73	46	x	i
Cc1ccc(S(=O)(=O)N(C)/C(=N/S(=O)(=O)c2ccccc2)c2ccccc2)cc1	0.6	5.7	4%	x	-4	-2	-10	99*	i
CC1CCCC/C1=N\NC(=S)Nc1ccccc1 (centres undefined)	7.7	0.5	-4%	x	10	-12	-4.2	x	i
Cc1cccc(Sc2ccc([N+](=O)[O-])cn2)c1	-1.2	4.2	30%	0.71	11	13	0.0	-11	i
O=C(NNc1nc2ccc(F)cc2s1)c1cccc(F)c1	2.0	9.5	3%	0.66	-55	-78	-31	98*	i
CC(Sc1nc(-c2ccccc2)cs1)C(=O)Nc1ccc(Cl)cn1 (centres undefined)	-2.0	-1.3	x	0.69	-18	-29	-19	3	i
CCN1[C@H](C(=O)NCC2CC2)[C@@H](CO)[C@@H]2Cn3c(ccc(-c4ccccc4OC)c3=O)[C@@H]21	x	-3.0	x	x	-3	-6	4.9	x	i
CC(C)(C)[S@@](=O)N1Cc2cc(C(=O)N3CCOCC3)nc(-c3cccc(-c4ccccc4F)c3)c2[C@H]1CCO	x	1.0	x	x	-7	-5	18	x	i
CN[C@@H](CO)C(=O)NC[C@H]1O[C@@H](n2cc(C)c(=O)[nH]c2=O)C[C@@H]1O	-2.2	-4.2	11%	x	5	4	-2.4	x	i
CCN(CCn1cccn1)C(=O)C1CCC(=O)N(CCN2CCOCC2)C1 (centres undefined)	2.7	-0.1	x	0.7	3	-3	1.2	7	i
COc1ccc(CC(=O)OC(C)C(=O)Nc2ccc(Cl)cn2)cc1 (centres undefined)	2.5	0.7	-2%	0.65	2	-9	7.4	-1	i
O=C(c1ccc(CN2CCc3ccccc3C2)cc1)N1CCN(c2ccccc2)CC1	2.3	x	-2%	0.68	x	x	x	70	x
CCCCNC(=O)c1ccccc1NC(=O)CCC	3.0	-0.3	-12%	0.65	-1	2	-0.8	3	i
COc1ccccc1NCCC(=O)OCC(=O)NC1CCCC(C)C1C (centres undefined)	2.2	-0.9	x	0.65	-3	3	2.4	53	i
CO[C@@H]1CN(C)C(=O)c2ccc(NC(C)=O)cc2OC[C@H](C)N(C(=O)C2CC2)C[C@@H]1C	x	-0.9	x	x	0	-1	-1.3	x	i
Cc1nc2c(ncn2-c2ccccc2)c(=O)n1NC(=O)CN1CCCC1	-0.9	-0.2	-8%	0.69	3	-2	-2.1	-13	i
CCN(c1ccccc1)S(=O)(=O)c1ccc(C(=O)NCCCn2ccnc2)cc1	-2.8	1.8	-1%	0.64	-6	-3	1.3	0	i
CNC[C@H]1Oc2ccc(NC(=O)Cc3ccccc3)cc2C(=O)N([C@H](C)CO)C[C@H]1C	x	-0.9	x	x	7	17	-1.9	x	i
COc1cc(C)ccc1OCc1cc(C(=O)NCCN2CCOCC2)no1	0.0	0.4	x	0.64	8	5	-1.1	-3	i
CC(C)S(=O)(=O)c1csc(NC(=O)Nc2ccc(Cl)cc2)c1Cl	-4.6	0.5	-13%	0.52	-42	-52	-8.3	5	i
COc1ccc(/C(O)=C2/C(=O)C(=O)N(CCN3CCOCC3)C2c2cccnc2)cc1OC (centres undefined)	-0.1	x	16%	0.74	x	x	x	x	x
COc1ccc(/C(N)=N/OC(=O)CCCc2ccccc2)cc1	0.5	2.2	5%	0.72	-13	-18	-11	x	i
CC(=C/c1ccccc1)/C=N/NC(=O)c1nnn(-c2nonc2N)c1CN1CCC(C)CC1	0.5	0.1	x	x	0	9	-0.4	1	i
O=C1c2ccccc2CCC12N=NCC2c1ccc(Br)cc1 (centres undefined)	2.1	x	-7%	0.68	x	x	x	-19	x
Cc1cccn2c(=O)c(C=O)c(N3CCCCCC3)nc12	1.4	x	-1%	0.65	x	x	x	8	x
CC(C)Cc1nnc(NC(=O)CCC(=O)N2CCN(c3ccccn3)CC2)s1	2.8	x	27%	0.68	x	x	x	-8	x
CC1CCCCC1NC(=O)CCNS(=O)(=O)c1cc(Br)cnc1N (centres undefined)	1.8	-0.2	29%	0.73	1	-5	-1.4	-8	i
CCOC(=O)c1c(C)[nH]c(C)c1C(=O)CN1C(=O)NC2(CCCCCC2)C1=O	0.9	1.3	x	0.7	9	14	1.4	x	i
CCCCn1c(N)c(N(CC(C)C)C(=O)c2cccc(S(=O)(=O)N3CCN(C)CC3)c2)c(=O)[nH]c1=O	-1.8	-12	7%	0.68	10	15	1.0	x	i
CCCN(C)C[C@H]1Oc2cc(C#CC3(O)CCCC3)ccc2S(=O)(=O)N([C@H](C)CO)C[C@H]1C	x	1.7	x	x	3	-1	1.7	x	i
CC(=O)N1CCC(O)(c2ccc3c(c2)OCO3)CC1	-2.8	-3.9	x	0.71	13	10	-1.3	-33	i
C=C1CCN([C@@H](CC(C)C)C(=O)N2CCOCC2)S(=O)(=O)c2ccccc21	-0.9	1.7	x	x	6	4	6.4	-12	i
COc1ccc(NC(=O)c2ccccc2-c2ccccc2C(=O)O)cc1	-3.9	0.9	5%	0.69	3	5	-0.9	x	i
CCCCn1c(N)c(N(CCOC)C(=O)COC(=O)COc2cc(C)ccc2Cl)c(=O)[nH]c1=O	4.9	-18	1%	0.64	-1	-3	-1.8	x	i
Cc1ccc(NS(C)(=O)=O)c(C(=O)c2ccccc2)c1	3.2	x	6%	0.68	x	x	x	4	x
C[C@@H]1CN([C@H](C)CO)C(=O)c2cc(NC(=O)Nc3ccc4c(c3)OCO4)ccc2O[C@@H](C)CCCCO[C@@H]1CN(C)Cc1ccc(C(=O)O)cc1	x	-5.7	x	x	0	0	-1.1	x	i
CN(C)c1cc(O)c(C(=S)Nc2ccccc2)c(N(C)C)c1	0.8	x	u	0.69	x	x	x	-4	x

Retrieved one by one from the list above (6):
SMILES	HNF4A DNA FP	MLL AF4-AF9 inh	Vif A3G	Ecoli growth	Ecoli rRNA inh	Ecoli rRNA inh OD600	Ecoli rRNA inh RFP	ALR H2O2 inh	FGF22 binding
CCN1[C@H](C(=O)NCC2CC2)[C@@H](CO)[C@@H]2Cn3c(ccc(-c4ccccc4OC)c3=O)[C@@H]21	x	-3.0	x	x	-3	-6	4.9	x	i
CCN(CC)S(=O)(=O)c1ccc(Cl)c(C(=O)Oc2cccc(-c3cnc4ccccc4n3)c2)c1	4.4	x	26%	0.77	x	x	x	0	x
COc1ccc(/C(O)=C2/C(=O)C(=O)N(CCN3CCOCC3)C2c2cccnc2)cc1OC (centres undefined)	-0.1	x	16%	0.74	x	x	x	x	x
Cc1cccn2c(=O)c(C=O)c(N3CCCCCC3)nc12	1.4	x	-1%	0.65	x	x	x	8	x
CC1CCCC/C1=N\NC(=S)Nc1ccccc1 (centres undefined)	7.7	0.5	-4%	x	10	-12	-4.2	x	i
CO[C@@H]1CN(C)C(=O)c2ccc(NC(C)=O)cc2OC[C@H](C)N(C(=O)C2CC2)C[C@@H]1C	x	-0.9	x	x	0	-1	-1.3	x	i

The list continues.
SMILES	HNF4A DNA FP	MLL AF4-AF9 inh	Vif A3G	Ecoli growth	Ecoli rRNA inh	Ecoli rRNA inh OD600	Ecoli rRNA inh RFP	ALR H2O2 inh	FGF22 binding
CNC[C@@H]1OCCCC[C@H](C)Oc2ccc(NS(=O)(=O)c3ccc(Cl)cc3)cc2C(=O)N([C@H](C)CO)C[C@@H]1C	x	-8.7	x	x	4	11	0.4	x	i
C[C@@H]1CN([C@H](C)CO)S(=O)(=O)c2ccc(/C=C/c3ccccc3)cc2O[C@@H]1CN(C)Cc1cccnc1	x	17	x	x	-20	-34	17	x	i
CCCCN(C(=O)NC(=O)Nc1cc(C)ccc1C)S(C)(=O)=O	-0.4	2.9	0%	0.64	5	9	1.1	x	i
COc1ccccc1NC(=O)Nc1nnc(-c2ccco2)s1	x	x	-9%	0.67	x	x	x	0	x
COc1ccc(-n2cc(CNCc3cccnc3)c(-c3cccc(F)c3)n2)cc1	2.9	-0.1	-5%	0.67	-39	-32	-4.7	22	i
CCC(C)(C)NC(=O)CN(Cc1cccs1)C(=O)CNS(=O)(=O)c1ccc(F)cc1	-2.9	-1.6	4%	0.64	13	13	-4.4	-2	i
O=S(=O)(Cc1ccccc1)N1CCCCN2[C@H](CO)[C@H](c3ccc(-c4cccnc4)cc3)[C@H]2C1	x	0.2	x	x	-2	-7	-1.7	x	i
C[C@@H]1CN([C@H](C)CO)C(=O)c2cc(-c3ccc(C#N)cc3)cnc2O[C@@H]1CN(C)Cc1ccncc1	x	-3.6	x	x	0	7	-2.1	x	i
COc1ccc(NC(=O)c2cc(-c3ccccc3OC)on2)cc1	0.4	x	1%	0.71	x	x	x	-19	x
Cc1c(NC(=O)c2cc(=O)[nH]c(=O)[nH]2)c(=O)n(-c2ccccc2)n1C	-0.4	x	0%	0.7	x	x	x	x	x
CCC(c1nc2ccccc2[nH]1)n1c(=O)c(-c2ccco2)nc2ccccc21 (centres undefined)	26	4.5	x	x	14	20	2.4	x	i
COc1cc(C)nc(NC(=S)N(C)C(=O)c2ccccc2)n1	-0.4	x	-6%	0.68	14	20	-0.4	10	i
CC(C)NC(=O)N(C)C[C@H]1Oc2ccc(N(C)C)cc2CC(=O)N([C@@H](C)CO)C[C@@H]1C	x	-2.3	x	x	2	4	1.2	x	i
O=C(Cn1[nH]c(=O)c2ccccc2c1=O)N1CC=C(c2ccccc2)CC1	4.1	x	2%	0.75	-16	-7	-4.9	-1	x
C[C@H](CO)N1C[C@H](C)[C@@H](CN(C)CC2CC2)OCCCC[C@H](C)Oc2ccc(NC(=O)Cc3ccccc3)cc2C1=O	x	3.4	x	x	5	7	1.1	x	i
O=C(C[C@H]1CC[C@@H]2[C@H](COC[C@@H](O)CN2S(=O)(=O)c2cccc(F)c2)O1)NC1CCC1	x	3.6	x	x	3	14	-0.2	x	i
COc1ccc2c3c([nH]c2c1)[C@H](CO)N(C(=O)c1ccccn1)CC31CN(C(=O)C2CCC2)C1	x	2.9	x	x	3	6	-1.2	x	i

A portion of the library. The share of hits here may be higher or lower than overall.
